Screening data as filed in PubChem BioAssay.
LANA-H2B inh: blocks KSHV LANA binding to histone H2A/H2B | Q9QR71 | inhibition, % (test concentration not listed) | AID 2629 | cell-free LANA-H2A/H2B peptide, fluorescence polarization | 0.6% of 320,000 active; in the data active = inhibition mostly above about 10%, no sharp cut-off; inactive = mostly below about 6.7%;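 also: stock transfer was 7.5 nL into about 10 µL; 0% = median of vehicle wells and 100% = median of positive control wells; one replicate is shown; the record names a cut of 25% in any replicate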
UCH37 inh: blocks the human deubiquitinase UCH37; Q9Y5K5; 0.33% of 330,000 active; purified proteasome/UCH37, Ub-AMC cleavage fluorescence; inhibition, % (concentration not given with the values);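 active = mean of two replicates above 20%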;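 also: 0% = compound-free wells with enzyme and 100% = wells lacking proteasome; stock transfer was 100 nL into about 20 µL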
Target sequence (Q9Y5K5 whole entry, looked up): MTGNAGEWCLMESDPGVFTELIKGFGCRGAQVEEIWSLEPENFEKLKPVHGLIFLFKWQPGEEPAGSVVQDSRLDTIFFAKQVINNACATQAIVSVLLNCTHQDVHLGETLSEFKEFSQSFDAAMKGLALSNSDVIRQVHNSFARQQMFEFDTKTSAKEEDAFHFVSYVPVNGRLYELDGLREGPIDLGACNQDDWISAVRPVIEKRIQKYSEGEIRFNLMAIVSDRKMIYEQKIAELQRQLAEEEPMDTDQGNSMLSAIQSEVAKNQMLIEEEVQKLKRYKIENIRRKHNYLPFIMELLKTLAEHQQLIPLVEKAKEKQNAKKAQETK
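Material: Human UCH37 enzyme supplied as purified proteasome complex | Schedule: 30 min preincubation with enzyme, 25 min cleavage at room temperature | Detection: AMC fluorescence 355/460 nm | Measure: % inhibition of Ub-AMC cleavage fluorescence | Controls: Wells without proteasome as full block, compound-free enzyme plus substrate as uninhibited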
Beta2AR agonist: agonists of human beta-2 adrenergic receptor inducing internalization; Am2.2-beta2AR cells, FAP receptor internalization, flow cytometry; reference of the scale not given here; response, % (test concentration not listed); 0.43% of 340,000 active;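 active = response above a set limit, near 3 SD of response in nonfluorescent compounds, cut at about 42% in these data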;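 also: stock transfer was 100 nL into about 11 µL; a reference agonist was the positive control; negative values mostly stem from fluorescent compounds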
Target sequence (P07550 whole entry, looked up): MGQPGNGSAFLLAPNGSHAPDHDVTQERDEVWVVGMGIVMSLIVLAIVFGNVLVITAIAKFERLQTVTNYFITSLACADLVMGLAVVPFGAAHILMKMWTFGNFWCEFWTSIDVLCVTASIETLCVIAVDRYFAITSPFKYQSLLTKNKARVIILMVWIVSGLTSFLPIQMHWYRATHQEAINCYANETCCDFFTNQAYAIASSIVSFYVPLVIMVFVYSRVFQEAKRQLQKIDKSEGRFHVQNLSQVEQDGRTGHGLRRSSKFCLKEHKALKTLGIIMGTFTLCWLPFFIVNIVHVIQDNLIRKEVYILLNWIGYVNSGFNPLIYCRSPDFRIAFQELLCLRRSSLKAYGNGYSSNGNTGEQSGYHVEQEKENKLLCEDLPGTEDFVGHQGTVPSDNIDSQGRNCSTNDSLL
ALR inh: human ALR oxidase inhibition via reduced H2O2 | P55789 | purified ALR, DTT oxidation, H2O2 HRP-luminol luminescence | inhibition, % (no concentration beside the values) | 3.8% of 290,000 active | AID 485317;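 active = mean and each replicate at 75% or more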;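 also: stock transfer was 7.5 nL into about 7.5 µL; 0% = neutral wells and 100% = wells with inactivated enzyme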
Ecoli growth: blocks Escherichia coli growth; OD600, 23 h; active compounds read low; OD600 absorbance (concentration not given with the values); 0.21% of 330,000 active;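 active = OD600 absorbance below the run mean of sample wells minus 3.6 SD, in any replicate, cut at about 0.56 in these data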;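 also: stock transfer was 300 nL into about 60 µL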
HNF4A DNA FP: change in binding of human HNF4 alpha to DNA; 0.3% of 360,000 active; activity change, % at 10 µM; HNF4a-FITC DNA binding, fluorescence polarization, 1 h; in the data active = activity change above about 30%, passing the limit was not always enough;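 also: controls were the assay level and a saturating level of protein; the project sought stronger binding though the title names inhibitors; some compounds called inactive have numbers as strong as hits; positive values seem to mean higher polarization but the record does not say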
FGF22 binding: FGF22 (human) thermal shift binding; Q9HCT0; 1.5% of 340,000 active; AID 651658; recombinant FGF22 thermal shift, SYPRO orange fluorescence; percent of sucrose octasulfate shift, DMSO zero; calls only at 9.99 µM;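 active = melting point raised past a set limit in the mean and every replicate; three in four hits are not shown here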
Target sequence (Q9HCT0 whole entry, looked up): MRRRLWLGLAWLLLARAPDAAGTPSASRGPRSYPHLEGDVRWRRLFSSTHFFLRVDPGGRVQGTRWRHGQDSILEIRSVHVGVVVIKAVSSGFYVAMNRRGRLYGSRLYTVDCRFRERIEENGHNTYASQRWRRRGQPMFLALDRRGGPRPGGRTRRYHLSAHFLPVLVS
* = called active by the depositor; i = inactive; x = not tested or not shown.

Molecule	LANA-H2B inh	UCH37 inh	Beta2AR agonist	ALR inh	Ecoli growth	HNF4A DNA FP	FGF22 binding
CCOC(=O)Cn1nc(C)c(NC(=O)c2cccc([N+](=O)[O-])c2)c1C	-2.2	3.5	-6.6	-11.6	0.703	3.8	i
COc1ccccc1CNC(=O)c1ccc(Cl)c(NC2=NC3CS(=O)(=O)CC3S2)c1 (centres undefined)	0.0	2.7	-0.7	0.0	0.725	0.7	i
COc1ccc(C2=NN(Cc3ccccc3)C3C(=O)NC(=O)C23)cc1 (centres undefined)	-0.5	-0.3	5.1	12.5	0.659	1.8	i
CCC(=O)N(c1nnc(SCC(=O)NN2C(=O)NC3(CCCCC3)C2=O)s1)C1CC1	4.9	1.4	-6.7	22.4	0.684	-0.1	i
Cc1ccccc1OCCSCc1nc2ccccc2[nH]1	0.9	4.8	-8.4	-18.7	0.667	1.7	i
O=C(CSc1nncs1)N1c2ccccc2Sc2ccccc21	0.7	0.0	-4.6	-0.1	0.659	-0.8	x
CCCn1c(SCC(=O)c2c(N)n(C3CC3)c(=O)[nH]c2=O)nc2cc(S(N)(=O)=O)ccc21	1.9	4.2	4.5	-1.3	0.705	-0.3	i
CCN(CC)c1ccc(N)cc1S(=O)(=O)Nc1ccccc1OC	0.3	1.1	-1.1	11.4	0.655	3.9	i
O=S(=O)(c1ccc(Cl)cc1)N1CCc2ccccc21	-94.1	5.5	-175.7	8.7	0.697	93.5*	i
N#Cc1cn(Cc2ccccc2)c2ccccc12	-3.3	1.9	-1.9	-0.2	0.736	0.4	x
CC(=O)C1=NN(c2ccc(Cl)cc2)C(c2ccc3c(c2)OCO3)N(C(C)=O)N1C (centres undefined)	-0.6	2.9	0.0	-4.6	0.662	-0.6	i
O=S(=O)(NCCN1CCCC1)c1ccc(C(F)(F)F)cc1	-6.5	4.2	-2.0	x	0.642	3.8	i

Molecule	LANA-H2B inh	UCH37 inh	Beta2AR agonist	ALR inh	Ecoli growth	HNF4A DNA FP	FGF22 binding
Cc1ccccc1NC(=O)/C(C#N)=C\c1cc(C)n(-c2ccc(C(=O)O)cc2)c1C	2.7	16.3	12.4	x	0.665	-7.0	i
COc1ccc2nc(/C(C#N)=C\c3ccc(C(=O)O)cc3)[nH]c2c1	-1.8	-4.3	-9.9	-6.8	0.703	13.2	i
CCC(=O)N(CCc1ccccc1C)Cc1cc2cc3c(cc2[nH]c1=O)OCO3	4.9	-15.9	-1.9	-5.1	0.726	-9.2	x
O=C(c1ccc(Cl)cc1)N1CCC(O)(CSc2ccc(Cl)cc2Cl)CC1	2.1	4.4	8.0	-11.3	0.74	-0.7	x
CNC(=O)c1c(NC(=O)c2ccc(S(=O)(=O)N3CCCc4ccccc43)cc2)sc2c1CCN(C)C2	0.9	6.1	-67.0	-6.8	0.681	32.3*	i
Cc1ccnc(Nc2nc(-c3ccccc3)cs2)c1	-6.4	6.0	-2.0	-3.6	0.705	0.7	i
CC1=C(C)CC(C(=O)NNC(=O)c2ccccc2)C(C(=O)O)C1 (centres undefined)	1.3	2.1	6.2	1.8	0.687	1.3	x
CCNC(=S)N/N=C/c1cccc(C)c1	-2.9	x	1.7	x	x	-2.2	i
COc1ccc(/C=C(\NC(=O)c2ccccc2)C(=O)N/N=C/c2sccc2C)cc1	-2.8	x	-3.6	-1.0	x	1.9	i
Cc1ccc(C(=O)C2=C(O)C(=O)N(Cc3cccnc3)C2c2ccc(OC(C)C)cc2)o1 (centres undefined)	3.8	8.4	3.8	x	0.694	-0.3	i
CC1CCN(c2c(NCC3CCC(C(=O)NCCC4=CCCCC4)CC3)c(=O)c2=O)CC1 (centres undefined)	0.5	2.9	-3.9	-5.8	0.652	2.4	i
O=C(N1CCCCCC1)N1CCN(C(=O)N2CCCCC2)CC1	-1.8	2.1	-0.8	-1.7	0.763	-0.3	x

Molecule	LANA-H2B inh	UCH37 inh	Beta2AR agonist	ALR inh	Ecoli growth	HNF4A DNA FP	FGF22 binding
CC(C)(C)NCc1cc2ccccc2[nH]c1=O	-2.5	-2.4	-0.2	3.5	0.741	2.0	x
CN(C)c1nc(SCC(=O)Nc2ccccc2)nc(N2CCOCC2)n1	-2.1	-2.7	-5.9	-4.1	0.692	0.6	i
O=S(=O)(Nc1cccc(-c2cn3c(n2)SCC3)c1)c1ccc(F)cc1F	-5.7	x	-14.4	6.6	x	3.9	i
Cc1ccc(S(=O)(=O)N2CCN(C(=O)CCn3cncn3)CC2)cc1	4.5	3.2	-6.1	-18.2	0.667	1.9	i
O=C(NCc1cccc(C(F)(F)F)c1)C1CC(c2cccc(F)c2)=NO1 (centres undefined)	-0.7	-3.2	-7.7	0.0	0.682	7.4	i
O=C(COc1cccc2c1CCN(Cc1ccc(Br)cc1)C2=O)N1CCOCC1	-0.5	5.0	-6.2	-0.3	0.722	4.6	x
C=CCSc1cc(C)nc2c(-c3ccc(Cl)cc3)c(C)nn12	3.8	-37.2	-3.1	58.4	0.676	-3.5	i
COC(=O)c1oc2c(c1C)C(=O)CCC2	-2.5	4.1	3.5	1.7	0.689	3.5	i
COc1cccc2[nH]c3c(N4CCC5(CC4)OCCO5)ncnc3c12	-0.9	i	-1.1	0.7	0.638	3.9	i
Cc1ccc(-c2cc(C(=O)N3CCN(c4ccccc4O)CC3)c3ccccc3n2)cc1	1.6	-2.5	12.7	-17.0	0.675	1.6	i
COc1ccc(C(C)=O)c(Oc2cc(NN3CCCCC3)c([N+](=O)[O-])cc2[N+](=O)[O-])c1	-2.2	1.8	-4.3	15.8	0.664	-6.1	i
CC1(C)CC(=O)C2=C(C1)NCN(Cc1ccc3c(c1)OCO3)C2	-5.0	5.1	-2.2	x	0.746	1.7	x

Molecule	LANA-H2B inh	UCH37 inh	Beta2AR agonist	ALR inh	Ecoli growth	HNF4A DNA FP	FGF22 binding
COc1ccc([N+](=O)[O-])cc1NC(=O)COC(=O)Cc1cc(OC)c(OC)c(OC)c1	7.2	3.7	4.9	-7.3	0.676	-1.8	x
Cc1cc(NC(=O)c2cc3n(n2)C(C(F)(F)F)CC(c2ccc(Cl)c(Cl)c2)N3)no1 (centres undefined)	-3.3	1.3	-6.2	46.9	0.717	3.2	x
Cc1nc(C)c(CC(=O)N/N=C/c2ccc(O)cc2)c(=O)[nH]1	0.8	x	-0.3	90.1*	x	2.4	i
COCCCn1c(C)nc2c(c1=O)c1nc3ccccc3nc1n2CCc1ccccc1	-1.1	-51.7	-12.2	2.3	0.734	9.9	x
COc1ccc(S(=O)(=O)N2CCOCC2)cc1NC(=O)/C=C/c1ccc(F)cc1	x	4.1	2.4	x	0.676	1.2	i
Cc1cc(C(=O)Nc2c(C)nn(Cc3c(Cl)cccc3Cl)c2C)no1	1.2	4.7	1.3	-2.9	0.729	-1.1	x
Cc1ccc(Nc2ncccc2C(=O)O)cc1C	-6.0	x	4.8	x	x	1.4	i
Cc1ccc(C)c(NC(=O)C2C(c3ccccc3)C2(Cl)Cl)c1 (centres undefined)	0.1	2.1	8.8	-11.5	0.681	-4.6	x
Cc1n[nH]c(=S)n1/N=C/c1ccc(-c2ccccc2[N+](=O)[O-])o1	-2.9	x	4.5	-18.5	x	-0.8	x
Nc1ccc(S(=O)(=O)Nc2nccc(/C=C/c3ccc([N+](=O)[O-])cc3)n2)cc1	5.2	3.0	-4.0	-1.7	0.654	5.0	i
CC(=O)Nc1ccc(S(=O)(=O)N2C3CCCC2CC(NC(=O)C2CCCCC2)C3)cc1 (centres undefined)	-0.5	1.5	-6.3	x	0.736	1.5	x
O=C(Nc1c(C(=O)Nc2ccccc2)cnn1-c1ccccc1)c1ccco1	-1.4	2.2	2.1	-0.7	0.682	-0.6	i

Molecule	LANA-H2B inh	UCH37 inh	Beta2AR agonist	ALR inh	Ecoli growth	HNF4A DNA FP	FGF22 binding
C(/C=C/c1ccco1)=N/N1CCN(c2ccccc2)CC1	-2.0	x	3.2	50.5	x	-1.1	x
O=C(CN1C(=O)S/C(=C/c2cccnc2)C1=O)N1CCOCC1	9.6	6.5	-8.7	-1.5	0.697	0.1	i
Cc1nnc(NC(=O)CC(NC(=O)C(F)(F)F)c2ccccc2)s1 (centres undefined)	2.4	2.5	-15.3	-3.9	0.665	5.5	i
COc1ccc(C2N(C(=O)N3CCOCC3)CCN2S(=O)(=O)c2ccc(C)cc2)cc1 (centres undefined)	-0.4	4.2	29.0	0.2	0.674	4.4	i
O=C(O)CCCCCn1c(SCc2cc(=O)n3cc(Cl)ccc3n2)nc2ccsc2c1=O	-1.0	-25.1	-22.2	1.4	0.703	1.7	x
CCn1ncc(C2=NOC(C(=O)NCc3ccc(Cl)cc3)C2)c1C (centres undefined)	58.1*	-1.2	18.3	-2.2	0.714	-2.1	x
CC1CCN(S(=O)(=O)c2ccc3c(c2)N(CC(=O)NCCCN2CCCCC2)C(=O)CS3)CC1	3.9	0.2	3.8	-3.9	0.68	0.2	i
O=S1(=O)CCC(NC(=S)Nc2ccccc2)C1 (centres undefined)	6.6	0.7	5.3	x	0.611	3.5	i
C[C@H](CO)N1C[C@H](C)[C@@H](CN(C)S(=O)(=O)c2ccccc2)Oc2ccc(NC(=O)CCC(F)(F)F)cc2C1=O	28.3*	-1.0	1.2	-1.0	x	7.1	i
CSc1c(CC(=O)NCCCO)n(Cc2ccccc2)c2ccccc12	4.4	0.8	-4.9	22.0	0.703	-2.0	i
CCOc1cc(/C=N/n2cnnc2)c(Br)cc1O	6.6	x	12.6	59.1	x	-1.0	x
COc1ccc(C(C)C)cc1S(=O)(=O)n1ccnc1C	4.6	0.8	-2.0	-1.8	0.675	3.2	x

Molecule	LANA-H2B inh	UCH37 inh	Beta2AR agonist	ALR inh	Ecoli growth	HNF4A DNA FP	FGF22 binding
O=C(CCC(=O)N1CCN(Cc2ccc(F)cc2)CC1)Nc1nnc(C(F)(F)F)s1	2.6	2.0	3.1	-1.6	0.652	-3.8	i
Cc1ccccc1SCCNC(=O)CCc1ccccc1	3.8	1.0	x	-4.4	0.656	x	x
CN(C)C(CNC(=O)CCC(=O)c1ccc(Br)cc1)c1ccccc1 (centres undefined)	1.0	x	5.1	x	x	-3.1	i
COc1ccc(OC)c(S(=O)(=O)Nc2cc3c4c(c2)CC(=O)N4CCC3)c1	4.5	-0.1	-1.6	-5.5	0.674	-0.2	i
COc1ccc(/C=N/N(C)C2=NCCN2)c(OC)c1OC	3.5	x	-0.4	x	x	0.7	i
COc1ccc(NC(=O)c2cccc3c2C(=O)c2ccc(-c4cnc(OC)nc4)cc2S3(=O)=O)cc1	-1.7	3.0	14.3	2.3	0.756	8.2	i
CSCCC(NC(N)=O)C(=O)NCc1cccc(Cl)c1 (centres undefined)	-2.6	-1.5	-2.2	-1.4	0.704	0.7	x
CN1C(=O)/C(=C/c2ccco2)SC1=Nc1ccc(N2CCOCC2)cc1	1.5	1.2	-2.7	8.1	0.741	-1.8	x
O=C1CCCC2=C1C(c1cccs1)n1nc(SCc3ccccc3)nc1N2 (centres undefined)	4.5	-22.8	-21.6	-4.7	0.734	-1.4	x
Cc1cc(C)c(S(=O)(=O)c2ccccc2)c(OC(=O)c2c(Cl)cc(Cl)cc2Cl)n1	-0.4	-0.1	20.4	-1.1	0.735	0.8	x
CCCCn1c(O)c(/C=C2\C=Nc3ccccc32)c(=O)[nH]c1=O	6.9	x	-43.9	53.9	x	4.8	i
COc1ccc(OCCOCCN2CCN(C)CC2)cc1	1.3	0.1	-2.5	-15.3	0.677	-0.5	i

Molecule	LANA-H2B inh	UCH37 inh	Beta2AR agonist	ALR inh	Ecoli growth	HNF4A DNA FP	FGF22 binding
O=C(COc1ccc(Cl)cc1)Nc1ccc(CN2CCOCC2)cc1	-2.2	0.8	1.6	-1.3	0.642	4.5	i
Cc1ccc(C(CC(=O)NCc2ccco2)c2ccccc2)c(O)c1 (centres undefined)	-8.3	6.1	0.4	15.5	0.723	-0.9	i
COc1ccccc1CC(=O)NC12CC3CC(CC(C3)C1)C2	2.5	0.7	1.0	x	0.612	-0.5	i
CS(=O)(=O)C1=NSC2=NC(=O)/C(=C\c3cccn3-c3ccccc3Cl)C(=N)N21	-4.3	6.2	6.7	25.7	0.695	12.4	x
O=C(C1CCC(CNc2nc(=S)[nH]c3ccccc23)CC1)N1CCN(c2ccc(F)cc2)CC1 (centres undefined)	x	-1.2	7.6	x	0.664	4.4	i

Not all compounds are listed; the hit share may differ from the screen's.
